GLA inh pH 4.5 – alpha-galactosidase A (human) inhibition, pH 4.5; P06280; 230,000 tested, under 10 active; activity change, negative = inhibition, % at 105 µM; purified enzyme, 4-MU-alpha-Gal fluorescence, pH 4.5; AID 1467; inconclusive = small, poorly fitted or top-dose-only inhibition, or a rising curve; inactive = flat fitted curve, though single readings scatter; no compound was filed as active;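 also: 0% = full activity with enzyme and -100% = basal without enzyme; dose as in the result columns while the protocol names 77 µM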
Target sequence (P06280 whole entry, looked up): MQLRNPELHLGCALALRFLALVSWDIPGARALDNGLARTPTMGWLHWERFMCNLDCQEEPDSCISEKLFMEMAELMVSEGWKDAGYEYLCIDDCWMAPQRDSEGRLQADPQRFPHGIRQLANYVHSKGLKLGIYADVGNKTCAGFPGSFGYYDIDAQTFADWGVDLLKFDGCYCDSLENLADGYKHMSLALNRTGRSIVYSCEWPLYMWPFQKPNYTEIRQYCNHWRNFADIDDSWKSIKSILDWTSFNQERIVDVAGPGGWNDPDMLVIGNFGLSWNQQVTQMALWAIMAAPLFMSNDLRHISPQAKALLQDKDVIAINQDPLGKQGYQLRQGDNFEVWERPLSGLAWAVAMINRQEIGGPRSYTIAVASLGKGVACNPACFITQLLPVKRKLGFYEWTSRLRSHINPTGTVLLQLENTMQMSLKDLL
miR-21 FLuc – miR-21 reporter, rising signal; HeLa miR-21 FLuc reporter, luciferase, 48 h; Potency, µM (top dose mostly 38.3 µM), for the others: top-dose reporter change, positive = more light; 340,000 tested, under 10 active; AID 2288; active = well fitted rising curve with a large enough effect; inconclusive = small, poorly fitted or top-dose-only effect; inactive = no such curve, though single readings can be large or run the other way;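 also: % of control where 0% means no effect; miR-21 action dims this reporter so a rising signal means less miR-21 action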
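HeLa cells stably expressing CMV-driven firefly luciferase with a downstream miR-21 binding sequence, endogenously expressing miR-21, were treated with titrations (up to about 40uM final) for 48 hours at 37 degree Celsius. Luciferase luminescence was read after lysis.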
Rango dissoc inh – prevents RanGTP from dissociating the Rango-importin beta complex | AID 540253 | Potency, µM (doses to about 46.1 µM), inactives show at the top dose activity change, negative = inhibition | Biochemical FRET Rango-importin beta, RanGTP-induced dissociation | 340,000 compounds, 0.071% hits; active means falling FRET ratio curve, often poorly fitted, with flat reads before Ran was added; inconclusive means other falling curves, or compound fluorescence or quenching; inactive means flat or rising ratio curve;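 also: potency is read from the fitted curve at half-maximal effect; % of control where 0% means no effect; nearly all actives have a fitted effect of over 45% in size; -100% = wells without RanGTP and RCC1; the record marks most hits as doubtful in a second field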
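Rango (0.1 uM)–importin beta (0.25 uM) complex; RanGTP-RCC1 trigger; 45 min RT; CFP/YFP FRET read.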
Rango-impB inh – Rango-importin beta binding inhibition; Potency, µM (series often up to 92.2 µM), for inactives: at the top dose inhibition of complex formation; Rango CFP/YFP FRET sensor + importin beta, 45 min; AID 540263; Q14974; 340,000 compounds, 0.031% hits; active = rising FRET ratio curve, often small or poorly fitted; inconclusive = mostly compound fluorescence or quenching in the first reads; inactive = flat curves in all reads;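 also: potency is read from the fitted curve at half-maximal effect; 0% = DMSO wells and 100% = buffer wells lacking importin beta; nearly all actives have a fitted effect of over 15% in size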
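FRET biosensor (snurportin 1 IBB flanked by EYFP and cerulean), 50 nM, with compound 5 min, then 0.125 microM importin beta in PBS, 1 mM DTT, 0.02% Tween-20, 0.1% BSA. CFP/YFP ratio read after 45 min at room temperature; pre-read flags interference.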
* = called active by the depositor; ? = inconclusive; nt = not tested or not shown; [ ] = dose if it differs, or a comment.

Under each structure – GLA inh pH 4.5, miR-21 FLuc, Rango dissoc inh, Rango-impB inh
- COC(=O)c1ccccc1S(=O)(=O)N1CCC(C(=O)OC(C)C(=O)N(C)Cc2ccccc2)CC1 (stereo not drawn)
 : nt, nt, 1%, 0.2%
- CC(C)(C)c1ccc(NC(=O)N2CCCN(c3ccc([N+](=O)[O-])cn3)CC2)cc1
 : -18, 19%, 27%, 4.4%
- O=C(CCC(=O)N(c1ccccc1)C(C(=O)NC1CCCC1)c1ccncc1)Nc1cccnc1 (stereo not drawn)
 : 7, -9%, 0%, -3.3%
- COc1ccc(-c2nc3c(c(=O)n(C)c(=O)n3C)n2CC2CC(c3ccccc3)=NO2)cc1OC (stereo not drawn)
 : nt, nt, 6%, 4.0%
- COc1ccc(NCC(=O)N/N=C/c2cc([N+](=O)[O-])ccc2N2CCCC2)cc1
 : -20, -4%, -11%, 0.4%
- CC(C)COC(=O)c1ccccc1N1C(=O)C2C3CCC(C3)C2C1=O (stereo not drawn)
 : -4, -8%, 3%, 0.5%
- Cn1c(=O)c2c(ncn2CC(=O)OCC(=O)Nc2ccc(Cl)cc2)n(C)c1=O
 : 4, -1%, -3%, 0.0%
- Nc1nonc1-n1nnc(C(=O)N/N=C/C2CC=CCC2)c1CSc1ccccc1 (stereo not drawn)
 : 1, 3%, 0%, 11%
- COc1ccc(NC(=O)c2cc3ccccc3o2)cc1OC
 : nt, -59%, -6%, -0.5%
- Clc1ccc(Sc2cnc3ccccc3n2)cc1
 : 5, -36%, -1%, -1.1%
- CC(Oc1coc(CN2CCN(C(=O)c3ccco3)CC2)cc1=O)c1ccccc1 (stereo not drawn)
 : nt, nt, 3%, 0.3%
- CCOc1cc(/C=C2/SC(=S)NC2=O)ccc1OC(=O)c1ccco1
 : -2, -1%, 5%, 3.7%
- Cc1coc2cc3oc(=O)c(CCC(=O)N4C[C@H]5C[C@@H](C4)c4cccc(=O)n4C5)c(C)c3cc12
 : nt, -11%, 19%, -1.1%
- COc1ccc(OC)c(C=NNC(=O)c2ccc(NS(=O)(=O)c3cccs3)cc2)c1
 : nt, nt, -1%, ?
- CC(NC(=O)c1cccc(S(=O)(=O)N2CCCCCC2)c1)c1ccccc1 (stereo not drawn)
 : nt, nt, -18%, -0.4%
- Nc1nc(SCc2ccc(Cl)cc2Cl)c2ncn(C3OC(CO)C(O)C3O)c2n1 (stereo not drawn)
 : nt, nt, -15%, 0.1%
- Cc1nc2sc(C(c3ccc(Cl)cc3)N3CCN(C(=O)c4ccco4)CC3)c(O)n2n1 (stereo not drawn)
 : 0, -9%, 8%, -0.6%
- COc1ccc(S(=O)(=O)Nc2cccc3c2O[C@H](CN(C)C(=O)Nc2ccccc2)[C@@H](C)CN([C@H](C)CO)C3=O)cc1
 : nt, nt, 21%, 1.8%
- CC(C)(C)c1ccc(C(=O)OC/C(O)=C(\C#N)c2nc3ccccc3s2)cc1
 : -14, -3%, -3%, ?
- Cc1cc(C)cc(NC(=S)NCc2ccc(S(N)(=O)=O)cc2)c1
 : -19, 0%, -4%, 1.4%
- Cn1c(=O)c2c(nc(SCCN3CCCCC3)n2Cc2ccc(Cl)cc2)n(C)c1=O
 : 3, -2%, 4%, -0.8%
- C=CCNC(=O)c1ccc(-c2nc(-c3ccccc3)cs2)cc1
 : -14, -39%, -1%, 1.6%
- COc1ccc(-c2cc(C(=O)N/N=C(\C)c3cccnc3)c3ccccc3n2)cc1
 : nt, -20%, -1%, -2.2%
- CCC(C)c1ccc(OCc2ccc(C(=O)O)o2)cc1 (stereo not drawn)
 : nt, -60%, 13%, 7.0%
- COCc1cc(C)nc(SCC(=O)Nc2ccc(N3CCOCC3)cc2)c1C#N
 : nt, 9%, 0%, 1.6%
- O=C(OCc1ccc(Br)cc1)c1ccncc1
 : -13, 2%, -16%, -5.0%
- CC(C)Sc1nc(C(F)(F)F)cc(=O)n1-c1ccccc1
 : -2, -1%, 14%, 0.1%
- CCCn1ncc(CN2CCC(C(=O)Nc3cccc(-c4cccc(F)c4)c3)CC2)c1C
 : nt, 15%, 1%, 0.0%
- CCCNC1=C(N(C(C)=O)c2cccc(F)c2)C(=O)c2ccccc2C1=O
 : 1, ?, 4%, 0.0%
- Cc1cccc(OCC(=O)NCCCNC(=O)c2ccco2)c1
 : nt, -5%, -6%, -0.3%

The closing four records of the section before are carried over, then new ones follow:
Under each structure – GLA inh pH 4.5, miR-21 FLuc, Rango dissoc inh, Rango-impB inh
- CC(C)Sc1nc(C(F)(F)F)cc(=O)n1-c1ccccc1
 : -2, -1%, 14%, 0.1%
- CCCn1ncc(CN2CCC(C(=O)Nc3cccc(-c4cccc(F)c4)c3)CC2)c1C
 : nt, 15%, 1%, 0.0%
- CCCNC1=C(N(C(C)=O)c2cccc(F)c2)C(=O)c2ccccc2C1=O
 : 1, ?, 4%, 0.0%
- Cc1cccc(OCC(=O)NCCCNC(=O)c2ccco2)c1
 : nt, -5%, -6%, -0.3%
- COn1c(SC(C)C)nc2ccccc2c1=O
 : -4, -14%, 1%, -0.2%
- CCOc1cc(C2c3c(-c4ccccc4)n[nH]c3C(=O)N2c2ccc(C(=O)O)cc2)ccc1O (stereo not drawn)
 : 0[21.1 µM], 3%, -20%, -0.1%
- Cc1c(NS(=O)(=O)c2cccc(C(=O)NC(C)c3ccccc3)c2)c(=O)n(-c2ccccc2)n1C (stereo not drawn)
 : nt, nt, -18%, 0.7%
- O=C(O)CN(Cc1ccco1)S(=O)(=O)c1ccc(F)cc1
 : -2, -2%, -7%, 0.5%
- Cn1nnc2cc(C(=O)N3CCSCC3)ccc21
 : 2, 1%, -2%, 3.0%
- CC(=O)Nc1cccc(NC(=O)c2cc([N+](=O)[O-])ccc2N2CCCCC2)c1
 : nt, nt, -13%, -0.5%
- O=C(Cc1ccccc1)Nc1ccnn1C1CCN(Cc2ccc(CO)o2)CC1
 : nt, 0%, -1%, 2.2%
- CCCCn1c(=NC(=O)c2cccnc2)c(C#N)cc2c(=O)n3cccc(C)c3nc21
 : 26, 8%, ?, ?
- CC(C)(C)NC(=O)COC(=O)c1ccc(Cl)c(S(N)(=O)=O)c1
 : 5, 1%, -1%, 2.5%
- Cc1csc(NC(=O)CSc2nncn2C)n1
 : -6, -4%, -14%, -0.1%
- NS(=O)(=O)c1cccc(NC(=O)COC(=O)CCN2C(=O)c3ccccc3C2=O)c1
 : nt, nt, -7%, -4.1%
- CNC(=O)c1c(NC(=O)c2ccc(S(=O)(=O)N3CCCc4ccccc43)cc2)sc2c1CCN(C)C2
 : 3, -8%, ?, ?
- S=C(c1ccc[nH]1)N1CCOCC1
 : 2, -6%, 2%, 11%
- CC(C)CCNC(=O)c1sc2ccc(S(=O)(=O)N3CCCCC3)cc2c1N
 : -3, 28%, -18%, ?
- COc1ccc(-c2ccnc3c(Br)c(C)nn23)cc1
 : nt, nt, -19%, ?
- Cc1ccc(N(CC(=O)Nc2ccccc2-c2ccccc2)S(=O)(=O)c2ccccc2)cc1
 : -1, 26%, -7%, -2.7%
- O=C1C(c2cc(=O)c3ccccc3[nH]2)=C(O)c2ccccc21
 : -10, -39%, 8%, 1.3%
- NC(=O)[C@H]1CC2(CC(c3cccc(NC(=O)CC(c4ccccc4)c4ccccc4)c3)=NO2)CN1C(=O)C(c1ccccc1)c1ccccc1 (stereo partly drawn)
 : -7, ?, 1%, ?
- N#C/C=C/N1CCN(C(=O)c2ccco2)CC1
 : nt, nt, 0%, 2.3%
- Cc1ccc2c(CN3CCN(CCO)CC3)cc(=O)oc2c1
 : -12, -4%, -11%, -5.3%
- Nc1ncnc2c1ncn2C1O[C@H](CO)[C@@H](O)[C@@H]1O (stereo partly drawn)
 : nt, nt, 37%, 1.1%
- COC(=O)COc1ccc(S(=O)(=O)Nc2ccc3c(c2)OCCO3)cc1C
 : nt, -7%, 3%, -4.3%
- C=CCN1C(=O)SC(Cc2cccc(OC)c2O)C1=O (stereo not drawn)
 : -1, 2%, 0%, 0.8%
- CSc1ncccc1C(=O)N1CCN(S(=O)(=O)c2ccccc2)CC1
 : nt, 0%, -6%, 2.1%
- Cc1ccc(S(=O)(=O)N2CCCCC2)cc1NC(=O)c1cccnc1
 : nt, nt, 8%, -0.2%
- Cc1cc(C(=O)NNC(=O)c2ccc(NC(=O)CC#N)cc2)c(C)o1
 : nt, nt, -15%, -2.9%
- CCc1ccc2oc(C(=O)NCc3ccc(S(N)(=O)=O)cc3)c(C)c2c1
 : 1, -16%, 10%, -0.2%
- CCC(C)NC(=O)c1ccccc1NC(=O)c1ccccc1N(C)S(C)(=O)=O (stereo not drawn)
 : 5, 0%, -16%, -0.7%
- CC(C)C(NC(=O)CN1C(=O)c2ccccc2S1(=O)=O)C(C)C
 : -8, 0%, 3%, -5.6%
- CCOC(=O)C1=C(C)NC(C)=C(C(=O)OCC)C1C(=O)OCC(=O)NCc1ccccc1OC
 : nt, nt, -14%, -0.4%
- O=C(CCCSc1ccc(Cl)cc1)Nc1ccccc1O
 : nt, 7%, 19%, 0.6%
- NC(=S)Cc1ccc(Cl)cc1Cl
 : -5, 0%, 17%, 6.1%
- C=CCN(C(=O)c1csnn1)C(C(=O)NC1CCCC1)c1ccc(F)cc1 (stereo not drawn)
 : nt, 2%, 5%, -0.5%
- Oc1ccccc1/C=N/Nc1ccccc1
 : -8, -28%, 19%, -0.1%
- c1ccc(-c2nc(NC3CC3)nc(-n3ccnc3)n2)cc1
 : -9, -3%, 20%, 7.7%
- CC1Cc2ccccc2N1C(=O)CN1CCC(n2nnc3cc(C(F)(F)F)ccc32)CC1 (stereo not drawn)
 : -7, ?, 7%, -2.1%
- CCOC(=O)c1c(NC(=O)CCNCc2ccco2)sc2c1CCC2
 : 2, -1%, 0%, ?
- Cc1ccc(C(=O)Nc2cc(Cl)ccc2N2CCCCC2)s1
 : -10, 0%, -6%, 0.3%
- COc1cc(OC)c(C(=O)N(CCc2ccccc2)Cc2ccccc2)cc1OC
 : nt, 11%, 1%, -5.0%
- CCOc1ccc(OCCC(=O)OCC(=O)N2CCN(S(=O)(=O)c3ccc(Cl)cc3)CC2)cc1
 : nt, ?, 1%, -2.3%
- CCOC(=O)N1CCN(C(=O)C2CCC(=O)N(CCCN3CCCC3=O)C2)CC1 (stereo not drawn)
 : nt, 0%, -24%, 0.9%
- COc1ccc(CCNC2=C(Cl)C(=O)N(CCc3ccccc3)C2=O)cc1OC
 : -6, 26%, -13%, ?
- Cn1c(SCC(=O)Nc2ccc3c(c2)OCCO3)nnc1C1CC1
 : nt, -1%, 5%, 3.9%
- Cc1ccc(S(=O)(=O)N2CCN(C(=O)COC(=O)C3CCC3)CC2)c(C)c1
 : nt, nt, -1%, -4.3%
- O=C(CN1C(=O)c2cccc3cccc1c23)Nc1ccc(S(=O)(=O)Nc2nccs2)cc1
 : 7, -13%, ?, 3.5%
- O=C(Nc1ccccc1)c1ccc(COc2ccccc2)cc1
 : 5, -16%, 2%, -1.3%
- COc1ccc(C(C)=O)cc1CSCCC#N
 : 0, 0%, 10%, -0.4%
- CN(c1ccc(C(=O)N2CCOCC2)cc1)S(=O)(=O)c1cccs1
 : nt, 2%, 1%, ?
- COCCn1cc(-c2csc(N)n2)c2ccccc21
 : nt, 2%, ?, ?
- COc1ccc(OCC(=O)Nc2ccc(S(=O)(=O)Nc3nc(C)cc(C)n3)cc2)cc1
 : 1, 1%, -7%, -2.2%
- O=C(OCc1csc(Nc2ccccc2)n1)c1ccc(Cl)cc1
 : 0, -12%, -8%, -0.6%
- CC(Sc1nc2ccccc2s1)C(=O)c1c(N)n(C)c(=O)n(C)c1=O (stereo not drawn)
 : 0, -15%, 11%, -0.6%
- CCNc1nc(Cl)nc(NNC(=O)C(C)Oc2ccccc2)n1 (stereo not drawn)
 : -4, -1%, 3%, 0.2%
- O=C(Nc1nccs1)c1cn2ccccc2n1
 : -5, ?, -18%, ?
- Cc1nc2ccccc2n1C(=O)c1ccccc1[N+](=O)[O-]
 : 2, -1%, -15%, -3.2%
- Cc1cc(OCc2cccc(S(=O)(=O)N3CCOCC3)c2)ccc1Cl
 : nt, nt, 5%, 5.6%
- Cc1ccc(S(=O)(=O)N2CCCCC2)cc1NC(=O)CSc1ncn[nH]1
 : -4, -2%, 9%, 3.3%
- CCCN1C2CCCC1CC(NC(=O)c1ccccc1Br)C2 (stereo not drawn)
 : nt, 0%, -5%, -0.2%

From PubChem

An excerpt (hit frequency here may not be typical).
